# VCAM-1 down imaging – inhibitors of TNFa-induced VCAM-1 surface display, imaging, high-content imaging, pooled HUVEC, TNFa stimulus (AID 456); inhibition, % at 5 µM, or IC50 in µM where a hit was titrated; HUVEC TNFa-induced VCAM-1 surface expression, immunofluorescence imaging; numbers were filed only for top-ranked candidate wells; 10,000 compounds, 0.2% hits;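 active = top tenth filtered wells with inhibition above zero that passed visual or statistical confirmation; inactive = the rest, including hits rejected on review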;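 also: 0% = stimulated vehicle wells and 100% = unstimulated cells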
# VCAM-1 up imaging – boosters of cytokine-driven VCAM-1 levels – imaging, high-content imaging, pooled HUVEC, TNFa stimulus (AID 457). Pooled HUVEC, TNFa-induced VCAM-1 immunofluorescence imaging; hits of this screen are not shown here. calls only. 10,000 compounds, 0.2% hits;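 active = a top-ranked rise in VCAM-1 staining upheld on image or statistical review; inactive = the rest, including candidates rejected on review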;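 also: compounds tested at 5 µM in the well; cells exposed to compound for 24 hours before fixing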
# FPR ligand – binds the human formylpeptide receptor FPR; FPR-expressing cells, fluorescent ligand binding, flow cytometry; 24,000 compounds, 0.74% hits; P21462; inhibition, %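 (tested at 6.7 µM)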;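 also: 0% = buffer wells and 100% = receptor blocker peptide wells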
# Target sequence (P21462 whole entry, looked up): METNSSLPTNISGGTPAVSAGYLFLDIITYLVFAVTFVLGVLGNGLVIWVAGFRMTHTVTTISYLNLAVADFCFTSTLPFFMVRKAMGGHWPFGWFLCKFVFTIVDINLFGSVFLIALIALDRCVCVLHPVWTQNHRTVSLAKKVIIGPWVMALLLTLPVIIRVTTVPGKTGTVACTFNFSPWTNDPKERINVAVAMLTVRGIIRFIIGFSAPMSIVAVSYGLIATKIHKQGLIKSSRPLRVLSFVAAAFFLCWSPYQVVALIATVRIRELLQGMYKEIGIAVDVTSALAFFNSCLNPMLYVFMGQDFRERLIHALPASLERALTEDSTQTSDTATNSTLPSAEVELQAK
# VCAM-1 inhibition – suppression of endothelial VCAM-1 upregulation – cell-based, plate reader, pooled HUVEC, TNFa stimulus (AID 454) | inhibition, % at 5 µM | 10,000 compounds, 0.2% hits | HUVEC TNFa-induced VCAM-1 surface immunofluorescence, plate reader; numbers were filed only for top-ranked candidate wells;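 active = compound among top-ranked inhibitors of TNF-induced VCAM-1 adhesion protein staining, with the hit upheld by image or statistical review; inactive = the rest, including hits rejected on review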;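 also: 0% = TNFa with vehicle and 100% = cells without TNFa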
# FPRL1 ligand – ligands of human FPRL1, also counter-screen for FPR ligands; P25090; FPRL1-expressing cells, fluorescent ligand binding inhibition, flow cytometry; inhibition, %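 (tested at 6.7 µM)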; 24,000 compounds, 0.3% hits; AID 441;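 also: 0% = buffer alone and 100% = receptor blocker peptide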
# Target sequence (P25090 whole entry, looked up): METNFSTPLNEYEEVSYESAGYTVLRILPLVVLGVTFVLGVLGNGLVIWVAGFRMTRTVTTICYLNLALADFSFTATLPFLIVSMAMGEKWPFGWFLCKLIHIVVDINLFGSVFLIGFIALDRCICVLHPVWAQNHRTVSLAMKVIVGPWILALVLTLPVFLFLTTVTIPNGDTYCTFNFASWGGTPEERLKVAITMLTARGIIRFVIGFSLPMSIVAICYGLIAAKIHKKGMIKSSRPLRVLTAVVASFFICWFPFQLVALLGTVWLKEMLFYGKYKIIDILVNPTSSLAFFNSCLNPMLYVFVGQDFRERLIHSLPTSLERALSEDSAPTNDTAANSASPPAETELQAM
# * marks the source's active call; other numbers are inactive results; i = inactive; x = not tested or not shown.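 The calls were made as follows, unless noted: active = mean above 30%; inconclusive = self-fluorescent; inactive = the rest.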 These rows are one share of the data; the hit share may differ from the screen's.
cpd	Molecule	VCAM-1 down imaging	VCAM-1 up imaging	FPR ligand	VCAM-1 inhibition	FPRL1 ligand
1	COc1ccc(CNC(=O)C2CCCN(S(=O)(=O)c3c(C)nn(C)c3C)C2)cc1 (stereo not drawn)	x	x	3	x	-8
2	COc1ccccc1N1CCN(C(=O)CCNS(=O)(=O)c2ccc(Br)s2)CC1	x	x	-1	x	5
3	C/C(=C\c1ccco1)C1C(C#N)=C(N)OC2=C1C(=O)CC(C)(C)C2 (stereo not drawn)	i	i	1	i	0
4	O=C(CCN1C(=O)C2C3C=CC(C3)C2C1=O)N1CCN(c2ccc(F)cc2)CC1 (stereo not drawn)	x	x	-1	x	-10
5	c1cncc(-c2nc3ccccn3c2Nc2ccc3c(c2)OCCO3)c1	x	x	3	x	-1
6	COc1ccc(N2CCN(CCCNS(=O)(=O)c3ccc4c(c3)oc(=O)n4C)CC2)cc1	x	x	-8	x	-10
7	Cc1ccc(CC2SC(=O)NC2=O)cc1Cl (stereo not drawn)	i	i	0	i	-2
8	CCOCCCNC(=O)C(NC(=O)c1cnccn1)c1ccc(OC)cc1 (stereo not drawn)	x	x	23	x	25
9	Cc1cn2c(-c3ccncc3)nnc2s1	i	i	-3	i	2
10	O=C(CCc1nc(-c2ccccc2F)no1)NC1CCN(Cc2ccccc2)CC1	x	x	-1	x	-2
11	O=C(CCCCn1c(=O)c2ccccc2n(CC(=O)NC2CCCC2)c1=O)NCc1ccco1	x	x	-6	x	7
12	CCOC(=O)C1CCCN(C(=O)c2cc3c(-c4cccc(OC)c4)nn(C)c3s2)C1 (stereo not drawn)	i	i	4	i	-2
13	COc1ccc(S(=O)(=O)N(CC(=O)N2CCN(c3ccccc3OC)CC2)c2ccccc2)cc1	i	i	6	i	1
14	CCN(CC)S(=O)(=O)c1ccc(F)cc1	i	i	7	i	-7
15	CC(C)c1ccc(S(=O)(=O)N2CCN(CCC(=O)Nc3ccc(N(C)C)cc3)CC2)cc1	i	i	-3	i	3
16	O=C(C1CCCN(S(=O)(=O)c2cccc3nsnc23)C1)N1CCN(c2ccccn2)CC1 (stereo not drawn)	x	x	4	x	-1
17	CCc1ccc(C2CC(c3ccccc3)Nc3nc(N)nn32)cc1 (stereo not drawn)	x	x	-2	x	-1
18	CCc1nc(N)nc(N)c1-c1ccc(Cl)cc1	i	i	8	i	2
19	COc1ccc(-c2nnc(SC(C)C(=O)Nc3nccs3)n2-c2ccccc2)cc1OC (stereo not drawn)	i	i	-11	i	3
20	O=C(O)c1ccc(COc2c(F)c(F)c(F)c(F)c2F)o1	i	i	-6	i	2
21	Cc1ccc(-c2nnc3c4ccccc4c(C)nn23)cc1S(=O)(=O)N1CCN(C)CC1	i	i	-7	i	-1
22	CC(=O)Nc1ccc(Cl)cc1C(=O)O	i	i	10	i	4
23	CCN(CCCNC(=O)CCNC(=O)Cn1cnc2ccccc2c1=O)c1cccc(C)c1	x	x	-6	x	0
24	Cc1nn(-c2ccc(F)cc2)c2sc(C(=O)OCC(=O)N3CCC(C)CC3)cc12	i	i	-8	i	-5
25	CC(OC(=O)CNC(=O)C12CC3CC(CC(C3)C1)C2)C(=O)Nc1ccc(N2CCOCC2)cc1 (stereo not drawn)	i	i	-2	i	3
26	CCOC(=O)C1CCCN(C(=O)c2ccc(CNc3c(N4CCC(C)CC4)c(=O)c3=O)cc2)C1 (stereo not drawn)	x	x	5	x	5
27	COC(=O)c1sc(NC(=O)COc2ccccc2OC)nc1C	i	i	4	i	-3
28	CCOCCCNC(=O)C(NC(=O)c1ccc2c(c1)OCO2)c1ccc(OC)cc1 (stereo not drawn)	x	x	-10	x	-10
29	Nc1nc(Cn2nnc(-c3ccccc3Cl)n2)nc(N2CCOCC2)n1	x	x	4	x	1
30	O=c1c2ccccc2nnn1CSc1nc2cc(Cl)ccc2c(=O)n1Cc1ccco1	i	i	-5	i	3
31	O=C1CCCN1Cc1ncnn1-c1ccccc1	i	i	4	i	-1
32	Cn1c(-c2ccccc2)cnc1SCc1nc2ccccc2c(=O)[nH]1	i	i	11	i	-4
33	CCOc1ccc(N(CC(=O)NCC2CCCO2)S(=O)(=O)c2ccc(OC)c(OC)c2)cc1 (stereo not drawn)	i	i	-1	i	-8
34	Cc1nc2ccccc2c(=O)n1CC(=O)N1CCOCC1	i	i	2	i	-1
35	COc1ccc(-n2nnc3c(SCC(=O)NCc4ccco4)ncnc32)cc1	x	x	-1	x	-3
36	CC1(C)CC(=O)C(C=NCC2CCNCC2)=C(O)C1	i	i	6	i	5
37	COc1ccc(-n2c(SCC#N)nc3ccccc3c2=O)cc1	i	i	0	i	8
38	Cc1csc2nc(CNS(=O)(=O)c3cccnc3)cn12	x	x	-1	x	-3
39	CCOc1ccc(C(CC(=O)O)NS(=O)(=O)c2ccc(C)cc2)cc1OC (stereo not drawn)	x	x	-2	x	-5
40	Nc1nc(CSCc2ccccc2)nc(N2CCOCC2)n1	i	i	-2	i	5
41	O=C(NCCN1CCN(c2ccccc2)CC1)c1cccn2c(=O)c3ccccc3nc12	x	x	2	x	3
42	COCCCn1c(SCC(=O)N2CCc3ccccc32)nnc1-c1ccoc1C	i	i	-10	i	-10
43	CCOc1ccc(N(CC(=O)NCc2cccc(OC)c2)S(=O)(=O)c2c(C)noc2C)cc1	i	i	2	i	-3
44	CN1CCN(C(=O)C2CCC(CNS(=O)(=O)c3cccc4cccnc34)CC2)CC1 (stereo not drawn)	x	x	2	x	6
45	O=C(CN1CCN(S(=O)(=O)c2ccc(Br)cc2)CC1)Nc1ccc2c(c1)OCCO2	x	x	9	x	12
46	O=C(O)c1ccc(CS(=O)(=O)c2cccc(C(F)(F)F)c2)o1	x	x	7	x	1
47	O=c1c2ccccc2nc2ccc(NCc3ccco3)nn12	x	x	-1	x	-18
48	Cn1c(-n2c(-c3ccco3)nc3ccccc3c2=O)nc2ccccc21	i	i	1	i	10
49	NC(=O)NC1CCCc2c1[nH]c1ccc(Cl)cc21 (stereo not drawn)	x	x	-1	x	0
50	COc1ccc(C(=O)NCc2nc3ccccc3[nH]2)cc1OC	i	i	-3	i	3
51	O=C(Cn1cc2c(n1)CCCC2)N1CCc2ccccc21	x	x	-7	x	1
52	O=C1c2oc3ccccc3c(=O)c2C(c2cccc(O)c2)N1CCCN1CCOCC1 (stereo not drawn)	x	x	-4	x	-1
53	NC(=O)c1sc2nc3c(c(-c4ccco4)c2c1N)CCC3	i	i	-6	i	-1
54	C=CCn1c(=O)c(C(=O)Nc2ccccc2C(=O)OCC)c(O)c2ccccc21	i	i	4	i	-1
55	COc1cc(C2c3c(oc4c(C)cc(C)cc4c3=O)C(=O)N2Cc2cccnc2)ccc1O (stereo not drawn)	i	i	-4	i	-2
56	Cc1cc(NC(=O)c2cnn3c(C(F)F)cc(C4CC4)nc23)no1	i	i	-9	i	-5
57	Cc1ccc(CN2C(=O)CCC2C(=O)NCCN2CCOCC2)cc1 (stereo not drawn)	x	x	-2	x	-1
58	COC(=O)c1c[nH]n2c(=O)cc(C)nc12	x	x	1	x	8
59	CC(C)(C)c1cnnn1-c1ccc(NC(=O)c2ccc3c(c2)OCO3)cc1	x	x	11	x	-4
60	O=C(CCSc1ccccc1)N1CCN(C(=O)c2ccco2)CC1	i	i	-20	i	-8

# The list continues.
cpd	Molecule	VCAM-1 down imaging	VCAM-1 up imaging	FPR ligand	VCAM-1 inhibition	FPRL1 ligand
61	CCCS(=O)(=O)N1CCC(C(=O)N2CCN(C(=O)OCC)CC2)CC1	x	x	-1	x	1
62	CC(C)N1C(=O)c2ccccc2C1C(=O)NC1CCCCCC1 (stereo not drawn)	x	x	2	x	4
63	Cc1nc2cc(CO)ccc2n1C	i	i	-1	i	-3
64	CN1CCc2c(sc3c2C(=O)NC(c2ccc(-c4cccc(Cl)c4)o2)N3)C1 (stereo not drawn)	x	x	-18	x	-24
65	Cc1oc(-c2ccc(Cl)cc2)nc1CN1CCC(C(=O)N2CCN(Cc3ccccc3)CC2)CC1	x	x	-4	x	4
66	COc1cccc(NS(=O)(=O)c2ccc3[nH]cc(C(=O)NCCN4CCOCC4)c(=O)c3c2)c1	x	x	15	x	2
67	Cc1cccc(-n2nnc(C(=O)N3CCc4ccccc4C3)c2N)c1	x	x	14	x	-2
68	CCn1c(Oc2ccc(Oc3ncc(Cl)cc3Cl)cc2)nc2c1c(=O)n(C)c(=O)n2C	x	x	-7	x	8
69	CCS(=O)(=O)N1CCC(C(=O)NCCN2CCN(Cc3ccccc3)CC2)CC1	x	x	-4	x	0
70	CC1Cc2ccccc2N1C(=O)Cn1c(=O)oc2cc(S(=O)(=O)N3CCCCC3)ccc21 (stereo not drawn)	x	x	-8	x	-7
71	O=C(O)CSc1sc(=S)sc1SCC(=O)O	x	x	5	x	-6
72	COc1ccccc1CNC(=O)C1CCN(S(=O)(=O)c2cccc3cccnc23)CC1	x	x	0	x	2
73	Oc1ccc(Br)cc1-c1nc2cnccn2c1NC1CCCC1	x	x	1	x	-1
74	CC(C)CCNC(=O)NC(=O)CSc1nnc(COc2ccccc2Cl)o1	i	i	-2	i	-4
75	COCCN1C(=O)c2ccccc2C(C(=O)NCC2CCCO2)C1c1c[nH]c2ccccc12 (stereo not drawn)	x	x	4	x	-4
76	O=S(=O)(c1cc(Cl)ccc1Br)N1CCOCC1	i	i	-3	i	-4
77	COC(=O)c1[nH]nc2c1C(=O)N(C1CCCCC1)C2=O	x	x	-14	x	-13
78	CC1CC(C)CN(CCCNC(=O)COc2cc(=O)n(C)c3ccccc23)C1 (stereo not drawn)	i	i	-2	i	2
79	Cc1cc(C(=O)Nc2cc(C)n(Cc3ccc(Cl)cc3)n2)no1	i	i	-2	i	3
80	CC1CCCC(NC(=O)Cn2cc3c(n2)CCCCC3)C1C (stereo not drawn)	x	x	-7	x	-1
81	Cc1noc(/C=C/c2ccco2)c1S(=O)(=O)N1CCC(C(=O)NCc2ccco2)CC1	x	x	6	x	1
82	COC(=O)CCc1c(C)c(C#N)c2nc3ccccc3n2c1N1CCCC1	i	i	7	i	-1
83	O=C(O)C1CCCCC1C(=O)Nc1ccc2c(c1)OCCO2 (stereo not drawn)	x	x	-4	x	-1
84	COc1ccccc1C(=O)N(CN1CCCC1=O)c1cccc(Cl)c1	x	x	-5	x	-1
85	CCn1c(C(=O)N2CCC(Cc3ccccc3)CC2)cc2sccc21	x	x	1	x	2
86	CC(=O)N1CCc2cc(S(=O)(=O)NC(CC(C)C)C(=O)N3CCn4c3nc3ccccc34)ccc21 (stereo not drawn)	i	i	0	i	1
87	COc1cc(C)c(S(=O)(=O)Nc2ccc(CC(=O)O)cc2)cc1C	x	x	0	x	-1
88	CCC(=O)N1CCc2cc(S(=O)(=O)NCCCN(CC)Cc3ccccc3)ccc21	x	x	1	x	2
89	Cc1ccc(CNC(=O)C2CCN(S(=O)(=O)c3cccs3)CC2)o1	i	i	0	i	-1
90	CCCCN(CC)C(=O)CN(C)S(=O)(=O)c1cccc2nsnc12	x	x	-6	x	1
91	COC(=O)c1ccc(-c2nc(-c3ccc(Br)o3)no2)cc1	x	x	7	x	8
92	COc1ccc(-c2cc(CCCC(=O)NCc3ccccn3)no2)cc1	x	x	2	x	-3
93	CCC(=O)NC(c1ccccc1)c1nc2ccccc2[nH]1 (stereo not drawn)	x	x	4	x	0
94	CCS(=O)(=O)N1CCCC(C(=O)NCc2ccc3c(c2)OCO3)C1 (stereo not drawn)	x	x	3	x	2
95	Cn1c(=O)oc2cc(S(=O)(=O)NCCC(=O)N3CC=C(c4ccccc4)CC3)ccc21	x	x	6	x	0
96	Cc1oc(-c2ccc(Cl)cc2)nc1CSCC(=O)NCCCN1CCOCC1	x	x	-1	x	2
97	O=C(Cn1cc2c(n1)CCCCC2)NCc1ccccc1	x	x	2	x	3
98	CC(=O)c1cccc(NC(=O)NCc2ccccn2)c1	i	i	4	i	-6
99	Cc1ccc(-n2nc(-c3ccc(N)cc3)cc2N)cc1	x	x	1	x	3
100	CCCCNC(=O)CSc1nc2ccc(N3CCOCC3)cc2c(=O)n1CCc1ccccc1	i	i	-6	i	-8
101	Cn1c(C(=O)N2CCCC2)cc2c(=O)n(C)c3ccccc3c21	x	x	2	x	0

# Among those listed so far, these contain a cyano group.
cpd	Molecule	VCAM-1 down imaging	VCAM-1 up imaging	FPR ligand	VCAM-1 inhibition	FPRL1 ligand
3	C/C(=C\c1ccco1)C1C(C#N)=C(N)OC2=C1C(=O)CC(C)(C)C2 (stereo not drawn)	i	i	1	i	0
37	COc1ccc(-n2c(SCC#N)nc3ccccc3c2=O)cc1	i	i	0	i	8
82	COC(=O)CCc1c(C)c(C#N)c2nc3ccccc3n2c1N1CCCC1	i	i	7	i	-1
